# PK Bst: modulators of Bacillus stearothermophilus pyruvate kinase | partly purified Bacillus stearothermophilus pyruvate kinase, luminescence ATP production; ribose 5-phosphate activator present at AC10 | Potency, µM | 1.2% of 51,000 active | AID 361; in the data active means potency below about 11 µM; inconclusive means mostly about 12 µM to 25 µM; inactive means weaker than that;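 the screen sought inhibitors and activators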;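 further: potency means the concentration at half of the fitted maximal effect; scaled between full activation by ribose 5 phosphate and full inhibition by luteolin; about four in five hits inhibit and the cells do not say which; series up to 57 µM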
# TsaE inh: YjeE (TsaE) inhibition, E. coli. purified YjeE, fluorescence polarisation of a bound ADP probe. Potency, µM. 0.05% of 71,000 active; active = well fitted falling curve; inconclusive = weaker or top-dose-only fall, or a rising curve; inactive = flat or poorly fitted curve;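 further: top concentration of the series not given in the record; excess ADP was the control for the full effect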
#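 Purified YjeE (10 uM) with BODIPY Texas Red-labeled ADP probe (2 uM); compounds pin-transferred, 15 min at room temperature. Binding inhibition read as decreased fluorescence polarization; ADP titration as control.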
# * = called active by the depositor; i = inactive; u = inconclusive; x = no result given.
SMILES,PK Bst,TsaE inh
Cc1ccc2c(c1)C(O)(CC(=O)c1cccnc1)C(=O)N2 (stereo not drawn),>57,i
CN(C(=O)c1ccc(NC(=O)C2CC=CCC2C(=O)O)cc1)c1ccccc1 (stereo not drawn),>57,i
O=C(CC1(O)C(=O)Nc2cc(Cl)cc(Cl)c21)c1ccccc1O (stereo not drawn),>57,i
CCOCCn1c(N2CCN(c3ccc(OC)cc3)CC2)nc2c1c(=O)n(C)c(=O)n2C,>57,i
Cc1c(NC(=O)CSc2nncc3ccccc23)c(=O)n(-c2ccccc2)n1C,>57,i
COc1ccc(CCNC(=O)CCNS(=O)(=O)c2cccc3nsnc23)cc1OC,x,i
COCCn1c(=O)c(-c2cc(F)cc(F)c2)nc2cnc(OC)nc21,x,i
CN(C)S(=O)(=O)c1ccc(NS(=O)(=O)/C=C/c2ccccc2)cc1,>57,i
OC(CN1CCCCC1)CN(c1ccccc1)c1ccccc1 (stereo not drawn),>57,i
CC[C@]1(c2ncc[nH]2)Cc2ccccc2O1,x,i
O=C(CN1C(=O)CSC1=O)c1ccccc1,>57,i
CCCCn1c(C(C)NC(=O)CCC)nc2ccccc21 (stereo not drawn),x,i
CCOc1ccc(CNC23CN4CN(CN(C4)C2)C3)cc1,>57,i
Cc1c(Br)cc(C(=O)NCCCN2CCOCC2)c(C)c1C,x,i
Cc1ccc(S(=O)(=O)c2cc3c(=O)n4ccccc4nc3n(CC3CCCO3)c2=N)cc1C (stereo not drawn),>57,i
CCC(CC)C(=O)Nc1cccc(C(=O)N2CCCCCC2)c1,>57,i
CSCCC(NC(=O)C1CCC(C)CC1)C(=O)N1CCN(c2ccccn2)CC1 (stereo not drawn),>57,i
CCNc1ncc2nc(-c3ccc(F)cc3)c(=O)n(CCOC)c2n1,x,i
COc1ccccc1CNC(=O)c1cnc2ccccn2c1=O,x,i
Cc1csc(N(C(=O)c2cccc(S(=O)(=O)N(C)C)c2)c2ccccc2)n1,>57,i
Cc1ccc(NC(=O)CCC(C(=O)O)N2C(=O)c3ccccc3C2=O)cc1 (stereo not drawn),>57,i
Cc1ccccc1-n1c(SCc2ccccn2)nc2n[nH]c(C)c2c1=N,>57,i
COc1cccc(Oc2cncnc2-c2ccc(OC)cc2O)c1,>57,i
O=C(NC1CCCCC1)C(c1ccc(F)cc1)N(Cc1ccco1)C(=O)Cn1nnc2ccccc21 (stereo not drawn),>57,i
COC(=O)c1ccccc1OCC(=O)NC1CCCCC1,>57,i
COC(=O)c1cn(CC(=O)NC2CCCCC2)c2ccccc12,>57,i
CCOC(=O)COc1ccc(Oc2nc(C)cc(OC)n2)nn1,>26,x
CCNC(=O)CN(c1ccc(OC)c(OC)c1)S(=O)(=O)c1ccccc1,>57,i
CC(=O)C1C(c2ccncc2)NC(=O)NC1(O)C(F)(F)F (stereo not drawn),>57,i
Cc1occc1-c1nnc(SCC(=O)Nc2nccs2)n1CCc1ccccc1,>57,i
CCCCNC(=O)c1c(N)n(/N=C/c2ccccn2)c2nc3ccccc3nc12,>57,i
CON(C)c1nc(Oc2ccc(=O)[nH]n2)nc(N(C)C)n1,>57,i
Cc1ccc(N)cc1-n1c(C)ccc1C,>57,i
COC(=O)c1[nH]c2ccc(C)cc2c1NC(=O)CN1CCCCC1C (stereo not drawn),>57,i
Clc1ccccc1C1CC(c2ccccc2)Nc2ncnn21 (stereo not drawn),x,i
Cc1ccc2c(c1)CCCN2C(=O)Nc1ccc2c(c1)OCO2,>57,i
COc1cc2c(CCNC(C)=O)c[nH]c2cc1Cl,x,i
Oc1c(I)cc(I)c2cccnc12,>26,x
Cc1cc(C)c(S(=O)(=O)O)c(C)n1,>26,x
CC1CC(C)CN(CCCn2c(=S)[nH]c3ccccc3c2=O)C1 (stereo not drawn),>57,i
CCOC(=O)c1cc2cc(C)ccc2[nH]1,>57,i
CCc1nnc(NC(=O)c2ccncc2)s1,>57,i
CN(C1CCS(=O)(=O)C1)S(=O)(=O)c1ccc(N2CCCC2=O)cc1 (stereo not drawn),>57,i
COCCn1c(=NC(=O)CSC(C)=O)sc2cc(OC)ccc21,x,i
O=C(CN1C2=NCCN2c2ccccc21)N1CCOCC1,>26,x
O=C(NC1CCCCCCC1)c1ccco1,>57,i
CC(CN(C)Cc1ccccc1)OC(=O)c1ccc2c(c1)OCCO2 (stereo not drawn),>57,i
O=C(Nc1nc(-c2ccncc2)cs1)c1ccc(S(=O)(=O)N2CCOCC2)cc1,>57,i
CN(C)c1cc(O)c(C(=S)Nc2ccccc2)c(N(C)C)c1,>57,i
CCCC(=O)Nc1c(O)c2ccccc2[nH]c1=O,>57,i
COC(=O)C1=C(N)Oc2cc(C)n(Cc3cccnc3)c(=O)c2C1c1ccc(OC)c(OC)c1OC (stereo not drawn),>57,i
Cc1nn(CC(O)COc2ccc3c(c2)CCC3)c(C)c1C (stereo not drawn),>57,i
CC(=O)c1cccc(NC(=O)N2CCCC2C(=O)NCc2ccccc2)c1 (stereo not drawn),>57,i
COC(=O)c1ccc(C(=O)OC)c(NC(=O)c2cc3ccccc3o2)c1,>11,x
COc1ccc(NC(=O)c2ccco2)cc1NC(=O)c1ccc(Br)o1,>57,i
NC(=O)C1CCCN(S(=O)(=O)c2ccccc2)C1 (stereo not drawn),>57,i
CCCSc1nnc(NC(=O)Nc2ccccc2)s1,>26,x
CCC(C)(C)n1nnnc1C(c1cc2cc(OC)c(OC)cc2[nH]c1=O)N1CCc2ccccc21 (stereo not drawn),>57,i
CSc1nc(-c2ccco2)nn1S(=O)(=O)c1ccccc1,>57,i
CNC(=O)Nc1cc(C(C)(C)C)no1,>57,i
# Next results follow.
SMILES,PK Bst,TsaE inh
c1csc(-c2csc(-c3cccs3)n2)c1,x,i
CCC(C)NC(=O)Cn1cnc2sc(C)cc2c1=O (stereo not drawn),>57,i
Cc1nn(Cc2ccc(Cl)c(Cl)c2)c(C)c1NC(=O)c1cc(-c2ccco2)on1,>57,i
CC(C)(C)OC(=O)NC(CCNC=C1C(=O)OC(C)(C)OC1=O)C(=O)O (stereo not drawn),>57,i
CCC(c1nnnn1CCc1ccccc1)N1CCN(C(=O)c2ccco2)CC1 (stereo not drawn),>57,i
CS(=O)(=O)N1CCN(C(=O)c2ccc(-c3ccccc3)cc2)CC1,x,i
CCOC(=O)Nc1ccc(S(=O)(=O)NCc2ccccc2)cc1,>57,i
CC(C)Cn1c(=O)c(C(=O)Nc2ccccc2S(N)(=O)=O)c(O)c2ccccc21,x,i
O=C1c2ccccc2CN1CCNS(=O)(=O)c1ccc(Cl)cc1,>57,i
Cc1c(NS(=O)(=O)c2cccc3nsnc23)c(=O)n(-c2ccccc2)n1C,>26,x
CCOc1ccc(C2C(C(=O)Nc3ccc(F)cc3)=C(C)Nc3nc(CCCO)nn32)cc1 (stereo not drawn),x,i
O=C(CN1C(=O)CSC1=O)Nc1ccccc1N1CCOCC1,>57,i
COc1cc(OC)c(C2C(C#N)=C(N)Oc3cc(C)n(CCCN4CCOCC4)c(=O)c32)cc1OC (stereo not drawn),>57,i
Cn1cccc1C(=O)N1CCC2(CC1)CCN(c1ccc(-c3ccccc3)cc1)CC2,x,i
CCc1ccc2nc(SCC(=O)N(CC)CC)c(C#N)cc2c1,>57,i
COc1cccc(-n2c(CNc3ccc(F)cc3)nnc2SCC(N)=O)c1,>57,i
O=C(Nc1ccc(Cl)cc1)Nc1ccc2c(c1)N1CCN=C1S2,i,i
Cc1cc(=O)oc2cc(OCc3nnc(-c4ccccc4Br)o3)ccc12,x,i
O=C(NCC1CCCO1)c1sc(=S)n2c1[nH]c(=O)c1ccc(C(=O)N3CCCCC3)cc12 (stereo not drawn),>11,i
Cc1cc2nc(NC3=NCN(Cc4ccc5c(c4)OCO5)CN3)nc(C)c2cc1C,>57,i
CC(C)OC(=O)NCCOC(=O)Nc1cccc(Cl)c1,>57,i
CCCCC(CC)C(=O)Nc1ccccc1C(=O)NC(C)C (stereo not drawn),>57,i
COC1(c2cc(-c3ccccc3)nc(N)n2)CCCCC1,x,i
CC1=C(C(=O)NCc2ccc3c(c2)OCO3)C2(CCC(C)CC2)OC1=O (stereo not drawn),x,i
O=c1ccc2c(o1)/C(=C/C=C(Cl)Cl)CCC2,x,i
C=CCc1cccc2cc(C(=O)N3CCN(C(=O)OCC)CC3)c(=O)oc12,>57,i
COc1ccc(O)c(C2NC(CC(C)C)(C(=O)O)C3C(=O)N(Cc4ccccc4)C(=O)C23)c1 (stereo not drawn),>57,i
CCN(CC)C(=O)c1cc2sc3ccccc3c2s1,x,i
O=C(Nc1cccc(C(F)(F)F)c1)c1cccnc1,>57,i
CC1CCc2c(sc3ncnc(N4CCOCC4)c23)C1 (stereo not drawn),x,i
CCCNC(=O)CN(C1CCCCC1)S(C)(=O)=O,>57,i
CNc1nnc(CSc2nc3ccccc3s2)s1,u,i
NC(=O)C(=O)O,x,i
CSCC[C@H](C=O)NC(=O)[C@H](CC(C)C)NC(=O)[C@H](CC(C)C)NC(C)=O,x,i
Cc1ccc(NC(=O)C2C3C=CC4(CN(Cc5cccnc5)C(=O)C24)O3)cc1F (stereo not drawn),x,i
COc1ccccc1NC(=O)CSc1nnc(C2CCCCC2)o1,>57,i
CC(=O)COC(=O)c1cccc(N2C(=O)C3C4C=CC(C4)C3C2=O)c1 (stereo not drawn),x,i
O=C(CCc1ccccc1)Nc1cccc(-c2nnc(-c3ccco3)o2)c1,>57,i
COCCn1c(C)cc(C(=O)COC(=O)CCc2ccc(S(=O)(=O)N3CCOCC3)cc2)c1C,>57,i
CC1(CCc2ccc3c(c2)OCO3)NC(=O)c2ccccc2N1 (stereo not drawn),>57,i
O=C(CCn1c(=O)sc2ccccc21)Nc1nccs1,x,i
COCCn1nnnc1C(CC(C)C)N1CCN(C(=O)c2ccco2)CC1 (stereo not drawn),>57,i
FC(F)(F)c1cc(-c2ccccc2)nc(N2CCCCCC2)n1,>57,i
CCOC(=O)c1sc(N2C(=O)C(O)=C(C(=O)c3ccco3)C2c2ccccc2)nc1C (stereo not drawn),>57,i
O=C(Nc1ccc(N2CCN(C(=O)c3ccco3)CC2)cc1)c1ccc(F)cc1,>57,i
COc1ccccc1NC=C1C(=O)OC(C)(C)OC1=O,x,i
COc1ccc(NC(=O)c2cnc3ccccn3c2=O)cc1OC,x,i
COc1ccc(C(=O)N2CCCC(c3nc(-c4cccs4)no3)C2)cc1 (stereo not drawn),>57,i
CC(C)(C)c1nc(NCC2CCCO2)c2nnn(Cc3ccccc3)c2n1 (stereo not drawn),>57,i
O=C(C1=C(O)C(=O)N(CCN2CCOCC2)C1c1ccccn1)c1cccs1 (stereo not drawn),>57,i
O=C(Nc1nncs1)c1c(F)c(F)c(F)c(F)c1F,>57,i
COC(=O)c1c(NC(=O)c2cccs2)sc2c1CCCC2,>57,i
Cc1nc2ccc(S(=O)(=O)NC(C(=O)NC3CCCC3)C(C)C)cc2s1 (stereo not drawn),x,i
CC(C)c1cc(NC(=O)CSc2nnc(-c3ccccc3F)n2C)on1,>57,i
Cc1ccc(N2CC(C(=O)Nc3ccncc3)CC2=O)cc1 (stereo not drawn),>57,i
CCN(CC)S(=O)(=O)c1cccc(-c2nnc(SCC(=O)c3cc(C)n(C4CC4)c3C)o2)c1,>57,i
Cc1ccc(-c2nn(C)c(=O)c3ccccc23)cc1CNS(C)(=O)=O,>57,i
Cc1ccccc1P(=O)(CO)c1ccccc1C,x,i
CC(C)Oc1ccc(C(=O)CCN2CCCCC2)cc1,>11,x
CC(=O)S[C@H]1CC2=CC(=O)CC[C@@]2(C)[C@H]2CC[C@@]3(C)[C@H](CC[C@]34CCC(=O)O4)[C@@H]12,x,i
# Next structures follow:
SMILES,PK Bst,TsaE inh
CN1CCN(C(=O)C2CCN(S(=O)(=O)c3cnc[nH]3)CC2)CC1,>57,i
COc1ccc2c3c(c(=O)oc2c1OCC(=O)C(C)(C)C)CCCC3,x,i
O=C1c2ccccc2C(=O)N1c1n[nH]c(CCc2ccccc2)n1,>57,i
Cc1ccc(CCNC(=O)C2CCCN(S(=O)(=O)c3cnc[nH]3)C2)cc1 (stereo not drawn),x,i
CC1(C)C=C(c2ccc(O)cc2)CC(C)(C)N1,x,i

# Bioassay records (PubChem BioAssay)

# Only part of the results is shown, so the mix of outcomes need not match the whole.
